# Assay outcomes as filed in PubChem.
# Autofluor counter: compound fluorescence in toxin protease inhibitor counterscreen | compound autofluorescence counterscreen, microsphere flow cytometry; active compounds read high | 360,000 tested, 3.1% active | fluorescence intensity (test concentration not listed);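 active means at least 3 SD above the mean of all compounds, about 16000 in these data; inconclusive means too few beads counted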;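 further: 100 nL of 1 mM stock went into each well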
# PrP 5UTR inh: suppresses PrP 5' UTR mRNA reporter expression; cell-based PrP 5' UTR mRNA reporter, plate reader; inhibition, % (concentration not given with the values); 340,000 tested, 0.35% active; AID 488862;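 active means every replicate at 50% or more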;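 further: 0 = median of the neutral control wells; tested in H4 reporter cells; numbers are from one replicate; inactives centre near -14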
# BJeLR viability: kills HRASV12-expressing BJeLR cells | BJeLR (HRASV12) viability, CellTiter-Glo ATP luminescence, 48 h; reference of the scale not given here | inhibition, % (no concentration beside the values) | 300,000 tested, 0.17% active | AID 1554;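 active means replicate mean above 50%; inconclusive means above 50% but judged a plate artefact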;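 further: 50 nL library stock added to about 25 µL; numbers are from one replicate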
# Mtb hypoxia rep: inhibitors of hypoxia-regulated fluorescent reporter in Mycobacterium tuberculosis; M. tuberculosis hypoxia-regulated fluorescent reporter, fluorescence; fluorescence inhibition, % (no concentration beside the values); 300,000 tested, 0.1% active; AID 1159583;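 active means 35 to 45% if threefold the growth effect, above 45% if 1.5-fold the growth effect; inactive means the rest, general growth blockers included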;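 further: wells of about 50 µL received 100 nL stock; 0% = vehicle wells and 100% = reference inhibitor wells; whole bacteria with a GFP reporter of the hypoxia response; strong numbers were not always called active; many hits fall short of the cut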
# RN4220 kill: S. aureus RN4220 growth inhibition; inhibition, % (test concentration not listed); 330,000 tested, 0.33% active; AID 1259311; OD600, 16 h;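 active means z-score of -3 or lower and OD600 up to 0.18 on both plates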;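 further: plate controls were untreated cells for no effect and reference antibiotic for full effect; stock transfer was 100 nL into about 80 µL; one replicate is shown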
# ugtP null kill: kills S. aureus RN4220 lacking UgtP. S. aureus RN4220 ugtP deletion, OD600 growth, 16 h; some inactives read as strong as hits. growth inhibition, % (no concentration beside the values). 330,000 tested, 0.54% active. AID 1259309;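 active means z-score under -3 and OD600 up to 0.15 on both plates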;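 further: plate controls were untreated wells for no effect and antibiotic for full effect; wells of about 80 µL received 100 nL stock; the first replicate is given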
# Mtb hypoxia rep growth: also measured in Mtb hypoxia rep; calls as there; growth inhibition, %; measured here: M. tuberculosis growth (absorbance);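 0% = vehicle and 100% = reference antibiotic; read after six days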
# * = called active by the depositor; ? = inconclusive; · = not tested or not shown.
Compound,Mtb hypoxia rep,BJeLR viability,ugtP null kill,Mtb hypoxia rep growth,PrP 5UTR inh,Autofluor counter,RN4220 kill
COc1ccc(CNC(=O)C(=O)NCCC2CCCCN2S(=O)(=O)c2ccc(C)cc2)cc1 (stereo not drawn),1,-3,3,6,-1,6031,1.7
CCOC(=O)n1c(=O)n(Cc2ccccc2C)c2ccccc21,3,-1,-4,-1,-11,3998,0.9
N#Cc1ccc(C(=O)NCC2CCCCC2)cc1,·,-1,12,·,-14,4084,2.3
C[C@H](NC(=O)C1CC(=O)N(c2ccc3c(c2)OCCO3)C1)C(=O)NCc1ccco1 (stereo partly drawn),6,4,4,5,-10,5258,1.0
CCc1ccc(OCC(=O)N2CCN=C2c2ccccc2)cc1,·,7,5,·,-2,4899,2.8
COC(=O)c1c(N)sc(C(=O)NCCc2ccccc2)c1C,·,14,·,·,70*,3175,·
O=C1c2ccccc2NC2(CCCCC2)N1c1ccc(O)cc1,·,4,5,·,-24,6978,0.9
CCc1nc2ccccc2c(C(=O)OCC(=O)N(C)Cc2ccccc2)c1C,3,·,-3,15,13,3863,0.1
O=c1cc(O)nc(-c2ccc(Cl)cc2)s1,2,2,6,-3,-8,2591,6.0
COc1ccc2[nH]c3c(c2c1)C1CCN2C(=O)CCCC(C3)C12 (stereo not drawn),4,·,3,7,·,·,5.8
COc1c(F)c(F)c(-c2csc(N)n2)c(F)c1F,5,2,4,4,-27,9557,3.4
O=C(NN=C/C=C/c1ccccc1)c1ccccc1Br,4,·,6,14,·,·,2.4
O=C(CN1CCN(S(=O)(=O)c2ccc(Br)cc2)CC1)NN=Cc1ccc(Br)s1,-9,·,-9,2,·,·,3.1
CC(C)c1nc2oc3c(N4CCNCC4)ncnc3c2c2c1CCC2,16,·,8,17,-16,6276,1.1
O=C1CN(C(=O)c2cc3ccccc3oc2=O)C(c2ccccc2)c2cc(F)ccc2N1 (stereo not drawn),-1,-7,1,6,1,6151,0.2
Cc1ccc(C)c(NC(=O)C(CC(=O)O)C2CCCO2)c1 (stereo not drawn),5,-14,11,3,-18,3659,5.8
Cc1nc(N2CCN(Cc3ccccc3)CC2)nc2c1C(=O)CC(c1ccco1)C2 (stereo not drawn),-3,·,33,-2,13,17519*,-2.7
COc1ccc(N2CC(C(=O)Nc3ccc(S(=O)(=O)Nc4nc(C)cc(C)n4)cc3)CC2=O)cc1 (stereo not drawn),16,-2,6,9,-9,10700,1.5
COc1ccc(OCCSc2nnc(CCNC(=O)c3ccc(Cl)c(Cl)c3)n2C)cc1,-5,2,-22,3,-5,20984*,-3.4
COc1cccc(CN(C)C(=O)c2cc(COc3ccc(-n4cncn4)cc3)on2)c1,13,7,3,15,-5,6134,3.3
COCCNC(=O)c1cc2c(=O)n3cccc(C)c3nc2n1C,10,-2,7,8,-5,5992,2.2
COc1ccc(C(=O)NCC(=O)NCc2cc(=O)n(C)c(=O)n2C)cc1,2,4,6,-7,-12,5199,3.2
CC(C)(C)NC(=O)C(c1ccc(O)cc1)N(Cc1ccco1)C(=O)CCC(=O)Nc1ccccn1 (stereo not drawn),3,5,5,5,3,3720,4.5
Cc1[nH]c2ccc(C(=O)N3CCC(C(N)=O)CC3)cc2c1C,7,·,0,9,-20,3877,3.7
COc1ccc(C(=O)N/C(=C/c2cccs2)c2nc3ccccc3[nH]2)cc1OC,4,0,19,2,-17,2536,7.7
CCOC(=O)c1sc2nc3c(cc2c1N)COC(C(C)C)C3 (stereo not drawn),-1,-6,-3,2,21,?,3.5
COc1ccccc1CC(NC(C)=O)C(=O)NC1CCN(C(=O)Nc2ccccc2Cl)CC1 (stereo not drawn),-6,-1,6,5,-15,4270,-0.6
COc1ccc(N(CC(=O)NN=Cc2ccc3c(c2)OCO3)S(=O)(=O)c2ccc(NC(C)=O)cc2)cc1,-19,·,7,2,·,·,0.7
O=S(=O)(NCc1ccc(Cl)cc1)c1cnc[nH]1,·,-5,11,·,-3,3015,1.9
CCN(CC(=O)NC(C)(C)C)C(=O)CN1c2cccc3cccc(c23)S1(=O)=O,-3,8,7,1,-7,4390,1.0
O=C(CCN1C(=O)S/C(=C/c2ccc(F)cc2)C1=O)Nc1ccc(O)c(C(=O)O)c1,-4,4,-3,-8,-23,5606,0.1
Cc1ccc(NC(=O)Cn2nnc(-c3ccccc3NC(=O)c3cccs3)n2)cc1,·,17,-3,·,-24,3027,-0.2
COc1ccc(N2CCN(CCNC(=O)C3CC(=O)N(C4CCCC4)C3)CC2)cc1 (stereo not drawn),6,-1,4,10,-32,10514,1.3
C(=NNc1nc2ccccc2s1)c1ccc2c(c1)OCO2,5,·,-26,-3,·,·,0.1
COc1ccccc1CNS(=O)(=O)c1ccc2c(c1)N(C(C)=O)CCO2,-5,9,-1,2,-5,5507,4.9
CCOC(=O)Cn1cc(/C=C(/C#N)C(=O)NC(C)C)c2ccccc21,0,2,5,-3,-36,4840,5.7
CCOc1cccc(N)c1,-2,·,2,10,-14,5669,1.0
CCOC(=O)c1c(C)nc2sc(C(=O)Nc3ccccc3)c(N)c2c1-c1ccc(OC)cc1,-6,1,-7,10,-27,2927,17
CCOC(=O)C(NCCOC)(NC(C)=O)C(F)(F)F (stereo not drawn),9,8,6,-9,-24,3725,3.1
N#CNC1=NCN(CCc2ccccc2)CN1,15,-1,0,10,3,2464,2.9
CCOC(=O)c1csc(COc2ccc(OC)cc2)n1,2,-3,8,-4,-14,4638,1.3
COc1cc(-c2nnc(SC/C=C/c3ccccc3)n2N)cc(OC)c1OC,2,0,7,-3,-7,5454,2.2
CC1(C)CC(=O)C(=Cc2cn(-c3ccccc3)nc2-c2ccccc2)C(=O)C1,2,-7,8,3,·,4078,3.9
Nc1nnc(-c2ccco2)s1,-5,-9,-5,-8,-23,10148,1.4
CN1CCN(c2nc3c(c(=O)[nH]c(=O)n3C)n2Cc2cccc(Br)c2)CC1,0,-14,4,13,-6,3552,4.3
COc1ccc(CCCc2nc3ccccc3[nH]2)cc1,9,8,2,2,-28,4766,-1.4
O=C(Nc1ccc(OC(F)F)cc1)c1cc[n+]([O-])cc1,12,-1,6,-3,-14,8306,0.8
COc1cccc(/C=N/NC(=O)CC(C)O)c1OC/C=C/c1ccccc1 (stereo not drawn),·,-2,·,·,-8,5072,·
O=C(CNC(=O)c1ccco1)NCC(=O)OCc1ccccc1Cl,1,6,4,0,-16,3182,1.5
Cc1cc(C(=O)Nc2sc3c(c2C#N)CCC(C)C3)cs1 (stereo not drawn),11,-5,-2,-3,-69,17096*,-2.2
C/C(=N\NS(=O)(=O)c1cccc([N+](=O)[O-])c1)c1cccnc1,·,-1,·,·,-8,3680,·
O=c1nc2n(c3ncccc13)CCC2,7,1,4,1,-23,9913,2.6
ON(CCc1ccncc1)Cc1ccccc1,8,·,1,5,-27,4527,-0.7
CCOc1ccc(N2C(=O)/C(=C/c3cc(OC)c(OC)c(OC)c3)N(CC(=O)OC)C2=S)cc1,·,-7,1,·,6,3632,0.6
COc1cc(C(C[N+](=O)[O-])c2c(N)n(C)c(=O)n(C)c2=O)ccc1O (stereo not drawn),5,3,-15,13,3,3225,0.7
O=c1cc(CN2CCCc3ccccc32)nc2sccn12,6,11,12,-1,-16,5814,8.8
COc1ccc(C(N)=NOC(=O)c2ccc(C)c([N+](=O)[O-])c2)cc1OC,10,·,-1,-2,·,·,4.9
NS(=O)(=O)c1ccc(NC(=O)COC(=O)COc2cccc(C(F)(F)F)c2)cc1,4,-1,11,3,-8,4309,3.3
O=C1C=C(c2ccc(OC(F)(F)F)cc2)CC(c2ccc(Cl)cc2)C1 (stereo not drawn),10,·,19,11,·,·,-10
Cc1cccc(OCCCOc2cccc3cccnc23)c1C,·,4,40,·,-24,2075,1.8

# The closing 2 records of the section above open the next one.
Compound,Mtb hypoxia rep,BJeLR viability,ugtP null kill,Mtb hypoxia rep growth,PrP 5UTR inh,Autofluor counter,RN4220 kill
O=C1C=C(c2ccc(OC(F)(F)F)cc2)CC(c2ccc(Cl)cc2)C1 (stereo not drawn),10,·,19,11,·,·,-10
Cc1cccc(OCCCOc2cccc3cccnc23)c1C,·,4,40,·,-24,2075,1.8
COc1ccc(CNC(=O)c2cccc(N(C)C)c2)cc1,·,3,0,·,9,4464,-7.3
O=C1CCCC2=C1C(c1ccccc1)NC(=S)N2 (stereo not drawn),-3,2,-2,6,-7,2563,-0.7
Cc1csc(=O)n1CCC(=O)OCC(=O)Nc1cccc(C#N)c1,3,2,11,9,-24,?,2.7
COC(=O)C1=C(C)N(C)C(=O)NC1c1ccsc1 (stereo not drawn),4,-11,12,1,-42,2070,2.2
COc1ccc(-c2cc(C(=O)N(C)Cc3ccccc3)no2)cc1OC,-2,-15,-1,6,1,8475,0.9
CNC(=S)N/N=C(\C)c1ccccc1,·,7,·,·,-19,4431,·
COc1ccc(CCC(=O)N2C[C@H]3C[C@@H](C2)c2cccc(=O)n2C3)cc1,·,-3,9,·,2,5496,1.2
CCc1ccccc1NC(=O)CSc1nnc([C@@H](NC(=O)OC(C)(C)C)C(C)CC)o1 (stereo partly drawn),4,7,12,0,-36,10017,-3.2
O=S1(=O)CCN(Cc2cccc(Cl)c2)CC1,·,-1,4,·,-4,2737,0.7
CCn1c(C)nnc1SCC(=O)Nc1cccc(C(F)(F)F)c1,10,-5,9,-3,-23,?,1.7
CCN1CC(CN(C)Cc2nc(-c3ccc(OC)c4ccccc34)oc2C)CC1=O (stereo not drawn),1,-7,6,5,-12,4144,3.3
C=CCn1c(-c2ccccc2)n[nH]c1=S,6,0,-3,4,-9,3880,4.0
O=Cc1cn(CCC(=O)O)nc1-c1cccc(Cl)c1,3,2,7,2,-29,4181,6.2
C/C(C=NN1CCN(Cc2ccccc2)CC1)=C\c1ccccc1,11,·,58,5,·,·,4.7
CNC(=O)c1[nH]cnc1C(=O)NC(Cc1ccccc1)C(=O)OCc1ccccc1 (stereo not drawn),9,·,-13,8,·,·,5.5
Fc1ccc(-c2nc3c(Cl)cc(C(F)(F)F)cn3c2Cl)cc1,3,3,-8,14,-33,5789,11
CC(C)(C)C1CCC(=NOC(=O)c2ccc(F)cc2)CC1 (stereo not drawn),8,3,16,2,-7,4347,3.2
COc1ccc(NC(=O)COC(=O)c2ccc3ccccc3n2)c(OC)c1,10,·,-5,3,-8,3628,5.9
COc1ccc(C2C(C(=O)OCC(=O)NC(C)(C)C)CCC(=O)N2c2ccc(C)cc2)cc1OC (stereo not drawn),-5,-2,-6,12,-3,5905,-1.8
NC(=O)C1CCN(C(=O)c2cc(S(=O)(=O)N3CCN(c4ccccc4)CC3)ccc2Cl)CC1,0,·,3,0,-19,3736,3.9
O=C1c2ccc3c4c(ccc(c24)C(=O)N1CCCCO)C(=O)N(CCCCO)C3=O,-34,29,34,-25,-28,4214,70
O=C(COC(=O)c1c2c(nc3ccccc13)CCCC2)c1cccs1,-5,0,-18,-17,-19,8359,13
Cc1cccc(CSc2nnc(CCCCCNC(=O)OC(C)(C)C)o2)c1,10,-6,7,24,-11,3996,2.7
COc1ccc(/C=N/n2c(-c3ccccc3)n[nH]c2=S)cc1,·,-6,·,·,-18,4051,·
CCOC(=O)N1CCN(C(=O)c2cccn3c(=O)c4cc(Br)ccc4nc23)CC1,10,-8,4,0,-39,4184,-0.7
CN1CCN(NC(=O)Nc2ccc(F)cc2)CC1,-3,1,-1,1,-7,4894,-1.9
Cc1cc(NC(=O)C23CCC(C)(C(=O)O2)C3(C)C)no1 (stereo not drawn),-4,5,-1,-5,-27,5699,-1.3
COc1ccccc1N1CCN(C(=O)C(=O)c2cn(CC(=O)N3CCCCCC3)c3ccccc23)CC1,4,2,-2,5,-7,8181,-0.8
CC(C)c1nc(C(N)=O)c2[nH]c(=O)n(-c3ccc(F)cc3)c2n1,5,-3,1,3,-22,5825,1.2
